FGF22 binding: FGF22 (human) thermal shift binding. recombinant FGF22 thermal shift, SYPRO orange fluorescence; percent of sucrose octasulfate shift, DMSO zero. calls only at 9.99 µM. 340,000 compounds, 1.5% hits;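 active = melting point raised past a set limit in the mean and every replicate; inconclusive = no clear call; three in four hits are not shown here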
Target sequence (Q9HCT0 whole entry, looked up): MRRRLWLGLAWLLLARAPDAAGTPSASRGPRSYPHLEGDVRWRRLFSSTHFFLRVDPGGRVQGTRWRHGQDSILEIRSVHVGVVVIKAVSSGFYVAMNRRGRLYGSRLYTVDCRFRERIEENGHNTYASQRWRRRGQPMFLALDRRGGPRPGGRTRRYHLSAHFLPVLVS
Beta apoptosis: beta cell apoptosis inhibition | INS-1E cytokine-induced death, ATP luminescence, 48 h; percent of positive-control rescue, neutral wells zero | protection from apoptosis, % (test concentration not listed) | 300,000 compounds, 0.8% hits;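 active = all replicates at 75% or more, or half of them and the mean; inconclusive = half reach 75% but not the mean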;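 also: 0% = cytokine-treated negative control wells and 100% = positive control rescue; higher means more ATP so stronger rescue from cytokine killing; wells of about 40 µL received 100 nL stock; the first replicate is given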
A1 inh: inhibitors of the anti-apoptotic protein A1, read as caspase activation; MEF A1-2A-BIM cells, Caspase-Glo 3/7 luminescence, 3 h; percent of clofoctol response, vehicle zero; caspase activation, % (no concentration beside the values); 330,000 compounds, 0.066% hits;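 active = over half of replicate activation scores above 10%, or exactly half above 10 with the replicate mean above 10; inconclusive = replicate mean below 10 yet half the replicates above 10; inactive = over half of replicates below 10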;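 also: wells of about 30 µL received 50 nL stock; many hits fall short of the cut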
T cruzi repl: T. cruzi replication inhibition | 300,000 compounds, 1.4% hits | T. cruzi beta-gal in NIH3T3, luminescence, 90 h | AID 1885 | inhibition, % (test concentration not listed);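 active = mean inhibition across valid replicates above about 55%, limit read from the data; inconclusive = mean below that limit but half or more replicates reach it; inactive = mean below it, under half of replicates reach it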;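 also: signal also drops with host cell toxicity which is not excluded here; 0% = plate median of DMSO wells and 100% = zero luminescence signal; higher percent means less beta-gal luminescence so fewer parasites; stock transfer was 50 nL into about 50 µL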
Ecoli rRNA inh: inhibitors of bacterial rRNA selective over humanized ribosomes. E. coli WT GFP vs humanized-ribosome RFP mutants, fluorescence, 24 h; hits give low values; DMSO median 0, no signal -100. GFP signal change (wild-type ribosome), % (concentration not given with the values). 350,000 compounds, 1.6% hits. AID 720706;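 active = significant combined selectivity score with lowered wild-type GFP, culture density cut under 30%, mutant RFP and density less affected; inactive = any of these conditions unmet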; also: one replicate is shown; some compounds called inactive have numbers as strong as hits
AF4-AF9 inh: blocks AF4 peptide binding to human AF9. 350,000 compounds, 0.47% hits. inhibition, % at 10 µM. AID 651704. AlphaScreen, biotin-AF4 peptide binding to FLAG-AF9;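 active = every replicate reaching a set inhibition limit, whatever the replicate mean, cut at about 25% in these data; inconclusive = mean inhibition reaches that limit but some replicates miss it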;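 also: 0% = plate neutral control median and 100% = total signal loss; the record names both 10 and 1 µM as test concentration; the first replicate is given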
Target sequence (P42568 whole entry, looked up): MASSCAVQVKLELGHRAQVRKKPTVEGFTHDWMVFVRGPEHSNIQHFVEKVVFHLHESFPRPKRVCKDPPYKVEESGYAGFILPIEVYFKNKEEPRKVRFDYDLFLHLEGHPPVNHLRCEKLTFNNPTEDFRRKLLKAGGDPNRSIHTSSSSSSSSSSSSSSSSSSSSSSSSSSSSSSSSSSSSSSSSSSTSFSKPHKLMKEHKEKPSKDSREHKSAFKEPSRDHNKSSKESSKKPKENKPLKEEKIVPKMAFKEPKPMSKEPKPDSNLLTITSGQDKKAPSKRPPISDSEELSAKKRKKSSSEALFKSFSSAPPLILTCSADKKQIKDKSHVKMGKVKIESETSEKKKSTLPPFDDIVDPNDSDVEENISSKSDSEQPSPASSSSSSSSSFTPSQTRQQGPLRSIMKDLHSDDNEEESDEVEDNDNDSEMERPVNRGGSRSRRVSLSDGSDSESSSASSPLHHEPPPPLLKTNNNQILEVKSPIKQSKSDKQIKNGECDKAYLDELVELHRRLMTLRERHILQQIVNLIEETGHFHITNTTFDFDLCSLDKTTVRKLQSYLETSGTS
Ecoli growth: E. coli growth inhibition; Escherichia coli growth, OD600, 23 h; hits give low values; OD600 absorbance (no concentration beside the values); 330,000 compounds, 0.21% hits; AID 1053175;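 active = OD600 absorbance below the run mean of sample wells minus 3.6 SD, in any replicate, cut at about 0.56 in these data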;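 also: stock transfer was 300 nL into about 60 µL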
UCH37 inh: inhibitors of human deubiquitinating enzyme UCH37; Q9Y5K5; purified proteasome/UCH37, Ub-AMC cleavage fluorescence; inhibition, % (no concentration beside the values); 330,000 compounds, 0.33% hits; AID 588478;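 active = mean of two replicates above 20%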;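 also: 0% = compound-free wells with enzyme and 100% = wells lacking proteasome; stock transfer was 100 nL into about 20 µL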
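Material: Human UCH37 enzyme supplied as purified proteasome complex | Schedule: 30 min compound-proteasome preincubation then 25 min substrate reaction, room temperature | Detection: AMC fluorescence from Ub-AMC cleavage, excitation 355 nm, emission 460 nm | Benchmarks: Wells without proteasome as full block, compound-free enzyme plus substrate as uninhibited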
Ecoli rRNA inh OD600: also measured in Ecoli rRNA inh; calls as there; OD600 change, %; measured here: OD600 growth;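 optical density of the mix in the first replicate; 0 = DMSO median and -100 = no signal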
Ecoli rRNA inh RFP: further read-out of Ecoli rRNA inh, marked with its call; RFP signal change, %; measured here: RFP humanized mutant strains;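 first replicate; 0 = DMSO median and -100 = no signal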
Starred values were filed as active, the others as inactive; i = inactive; ? = inconclusive; . = no result given. An excerpt; rates above refer to the full screens.

SMILES	FGF22 binding	Beta apoptosis	A1 inh	T cruzi repl	Ecoli rRNA inh	Ecoli rRNA inh OD600	Ecoli rRNA inh RFP	AF4-AF9 inh	Ecoli growth	UCH37 inh
O=C(COC(=O)CNC(=O)c1cccc(OC(F)F)c1)NCc1ccc2c(c1)OCO2	i	-3.4	1.4	.	23.3	20.7	10.5	-0.9	0.673	-1.6
Cc1ccc(SCc2c(C(=O)N/N=C/c3ccncc3)nnn2-c2nonc2N)cc1	i	-2.5	-1.5	-2.5	6.0	2.5	1.3	-5.3	.	.
CSc1nc(-c2ccccc2)nc(C(Cl)Cl)n1	.	104.6*	0.5	-100.7	.	.	.	.	0.706	2.5
COCCN1Cc2cccc(C(=O)Nc3ccc(S(=O)(=O)N4CCOCC4)cc3)c2C1=O	i	-4.3	-1.2	6.4	10.1	1.7	-6.8	-2.8	0.677	-4.4
Cc1cccc(OCC(=O)Nc2cc(C)c(C)cc2O)c1	i	1.8	-0.2	5.7	9.9	29.2	-2.7	8.3	0.727	1.7
Fc1ccccc1CSCc1nc2ccccc2[nH]1	i	-6.3	-1.6	-2.9	-15.5	-10.4	-2.0	-9.3	0.654	3.9
CC(C)c1ccc(C(=O)CSc2n[nH]c(-c3ccncc3)n2)cc1	.	0.1	0.2	1.7	.	.	.	.	0.776	0.1
CN(CC(=O)Nc1c(Cl)cccc1Cl)C(=O)CCC1CCCC1	i	-7.4	0.4	-7.5	9.4	-1.9	7.3	-7.0	0.669	2.3
Cc1ccc(C(=O)N2CCN(C)CC2)cc1S(=O)(=O)N1CCCCCC1	i	-14.6	0.6	3.3	23.6	13.3	-1.0	-1.1	0.67	0.3
Cc1noc(NS(=O)(=O)c2ccc(NC(=O)c3oc4ccc(F)cc4c3C)cc2)c1C	i	.	.	12.9	-30.6	-58.4	-0.3	-2.9	0.718	6.3
COc1ccc(Cl)cc1C(=O)NNC(=O)c1cccnc1	.	1.9	0.4	-12.4	.	.	.	.	0.627	3.1
COc1cc(C(=O)N2CCN(c3ccc([N+](=O)[O-])cc3)CC2)ccc1OCc1c(C)noc1C	.	5.8	-0.2	13.7	.	.	.	.	0.661	4.2
CN(C)C(CNc1ncccn1)c1ccccc1 (centres undefined)	i	-0.8	0.5	-7.0	13.3	16.7	0.0	-2.5	0.667	1.4
CC12CC3CC(C)(C1)CC(C(=O)N1CCCC1)(C3)C2	i	.	0.5	11.8	.	.	.	-11.0	0.666	0.9
Cc1ccc(Nc2nc(NCCO)c3ccccc3n2)cc1C	i	.	0.6	31.8	3.0	-22.6	0.1	18.3	.	.
CCOC(=O)c1nnc(-c2cccs2)nc1NC(C)C	.	-17.9	-0.2	-12.1	.	.	.	.	0.681	8.6
CCOC(=O)CNC(=O)CSc1ncnc2c1cnn2-c1ccc(C)cc1	.	0.5	-10.2	-6.6	.	.	.	.	0.713	-1.5
O=C(COC(=O)c1ccc(F)cc1F)NCCC1=CCCCC1	i	-1.2	0.6	.	-7.3	-1.1	-4.4	-4.1	0.607	1.3
O=C(CN1CCCC1)Nc1cccc(Cl)c1	i	-1.2	0.9	-11.0	8.7	16.0	0.6	0.8	0.65	3.1
CC(=O)N1c2ccc(S(=O)(=O)N3CCCC(C(=O)NC4CCCC(C)C4C)C3)cc2CC1C (centres undefined)	i	2.9	-0.5	-2.6	2.5	10.6	-3.6	-0.2	0.623	1.1
O=C(CSc1nnc(NC(=O)c2ccco2)s1)Nc1cccc(F)c1	i	-2.1	-3.6	-9.1	8.9	5.3	-1.1	-1.7	0.668	0.6
c1ccc(-c2nnc(OCC3CCCO3)c3ccccc23)cc1 (centres undefined)	i	1.3	-0.3	-2.5	-19.3	-23.4	-1.4	-0.8	0.713	0.0
Cc1c(Cl)cccc1NC(=O)Cn1cc(C(F)(F)F)cc(Cl)c1=O	i	-2.2	0.2	-0.3	4.1	1.8	0.8	-1.8	0.741	-14.8
COc1ccc(OCc2cn3c(C)cc(C)nc3n2)cc1	i	-4.1	-0.3	3.0	3.4	7.2	-8.5	1.5	0.647	0.6
CCOC(=O)c1cn2nc(SCc3ccccc3)nc2nc1C	i	-0.8	2.1	8.3	-9.6	-3.8	-0.7	-6.5	0.662	1.5
Cc1ccc(-c2nc(-c3ccccc3)no2)cc1	.	4.1	-7.1	0.6	.	.	.	.	0.731	-0.7
CCN(CC(=O)Nc1ccccc1SC)Cc1nc2ccccc2c(=O)[nH]1	i	2.8	0.8	1.3	-8.8	-0.8	-1.1	-5.9	0.692	2.0
Cc1ccc(CSCCNC(=O)CSCc2ccc([N+](=O)[O-])cc2)cc1	.	-9.6	0.0	-5.4	.	.	.	.	0.716	4.9
C[C@@H]1CCC(=O)N(CC[C@H](N=[N+]=[N-])c2ccccc2)CC1	i	-8.2	-0.1	8.3	-0.8	9.0	-6.2	3.3	.	1.6
CCS(=O)(=O)Nc1cccc(C2=NN(S(=O)(=O)c3ccccc3)C(c3ccco3)C2)c1 (centres undefined)	i	-1.6	0.8	-14.7	-9.4	-10.2	-1.5	-1.5	0.672	3.8
CC(C)(C)C(=O)N(Cc1ccc(Cl)cc1)Cc1cccnc1	i	-8.2	-0.1	15.9	2.1	-8.9	0.1	-1.7	0.7	2.3
O=C(NCCc1ccc2c(c1)OCCO2)c1ccc(F)cc1	.	-1.2	-0.3	-21.1	.	.	.	.	0.663	-1.1
CCOC(=O)N1CCN(C(=O)CSc2nc3ccccc3c(=O)n2-c2ccccc2)CC1	.	1.4	0.7	11.5	.	.	.	.	0.717	2.6
O=C(COc1ccc(Br)cc1)Nc1nc(-c2cccnc2)cs1	i	-2.7	0.3	4.5	3.1	-1.8	-1.2	-1.8	0.693	4.1
COc1cc(C2NC(=O)NC(C)=C2C(=O)OC2CCCCC2)cc(Br)c1O (centres undefined)	.	-3.1	-0.4	2.7	.	.	.	.	0.661	4.8
O=C1c2ccccc2C(=O)c2c(NCc3cccnc3)cccc21	.	7.9	-0.3	16.8	.	.	.	.	0.667	1.7
CCCCOc1ccc(NC(=O)CN2CCN(CC)CC2)cc1	i	.	0.3	4.1	11.7	2.5	-2.2	1.1	0.663	-0.4
COc1cc(C(=O)NCc2nnc(SCC(=O)N3CCCC3)o2)cc(OC)c1OC	i	0.6	-1.4	-12.0	0.3	4.9	-0.6	1.2	0.616	0.7
COc1ccc(NS(=O)(=O)c2ccc(N3CC(O)=C(c4ccccc4)C3=N)cc2)cc1	i	-14.1	0.3	-8.6	7.3	5.4	-4.0	-2.4	0.698	1.6
Clc1ccc(OCCSc2ncccn2)c(Br)c1	.	-2.2	-3.5	6.7	-33.3	-40.2	2.1	-2.2	0.592	0.6
CCN1CCN(C(=O)CSc2cc(=O)n(C)c3ccccc23)CC1	i	-4.3	0.0	2.3	-1.0	10.0	1.4	3.8	0.679	0.8
N#C/C=C1/NC(=O)c2ccccc2S1	.	3.4	1.7	-2.8	.	.	.	.	.	5.0
O=C(c1cc(C2CC2)nn1-c1ccccc1)N1CCN(S(=O)(=O)c2c(F)cccc2F)CC1	i	-3.9	0.8	.	-0.4	-13.0	10.4	3.0	0.693	5.5
Cc1cc(Cl)ccc1OCC(=O)Nc1ccccc1CO	.	-5.2	-0.4	-8.8	.	.	.	.	0.698	-1.4
CC(C)c1nnc(NC(=O)CC(C)c2ccccc2)s1 (centres undefined)	i	-2.2	0.9	-7.3	6.2	1.2	2.2	-3.2	0.674	5.3
COc1ccc(CN(C)S(=O)(=O)c2ccc3c(c2)OCCO3)cc1	i	.	0.3	-1.6	0.6	-12.4	0.4	-4.5	0.704	2.6
CC(C)n1ncc2c(C(=O)NCCc3ccc(S(N)(=O)=O)cc3)cc(C3CC3)nc21	.	.	.	.	3.9	4.2	-2.4	0.6	0.7	-28.5
CCOC(=O)C1CCCN(c2oc(-c3ccc(OC)cc3)nc2C#N)C1 (centres undefined)	i	-0.3	-1.3	11.2	-32.3	-45.8	-11.3	10.0	0.625	-119.5
CCOc1ccc(S(=O)(=O)NN)cc1	.	1.7	0.9	3.0	.	.	.	.	0.703	-0.4
S=C(NCc1cccs1)Nc1ccccc1	i	-6.7	1.1	-11.4	-1.4	1.5	1.4	-0.2	0.681	3.6
COc1cccc(CNC(=O)CCC(=O)N2CCOCC2)c1	i	3.6	-0.3	.	1.7	1.9	0.0	-1.1	0.666	-1.7
CC(=O)c1cccc(NC(=S)NC2CCCCC2)c1	.	-3.4	-0.3	-9.9	.	.	.	.	0.652	3.7
CCCc1cc(=O)oc2c(CN3CCCC3)c(O)ccc12	.	-3.5	-0.5	-9.8	.	.	.	.	0.687	i
CC(C)N(C(=O)[C@H]1CC(CC(=O)NCCc2ccccn2)C(=O)N2CCc3c([nH]c4ccccc34)[C@]12C)C(C)C (some centres undefined)	i	-4.1	-0.1	.	-2.7	-4.3	2.2	3.5	0.7	-2.0
CCOC(=O)C1=C(CC)Nc2ccccc2N=C1NC(=O)Nc1ccc(Cl)c(Cl)c1	.	62.8	0.5	60.9*	-56.0	-82.1	-33.2	.	0.597	4.1
Cc1ccc(S(=O)(=O)N2CCC(C(=O)OCC(=O)N3CCCC(C)C3)CC2)cc1C (centres undefined)	i	-0.5	-0.5	-8.3	-0.1	3.5	-0.5	-0.4	0.68	-0.4
Cc1cc(C)c(S(=O)(=O)n2ccc(-c3ccc(OCCN(C)c4ccccn4)cc3)n2)c(C)c1	.	.	?	41.5	.	.	.	.	0.717	2.1
COc1cc(C(=O)NCc2ccccc2)ccc1OC(F)F	i	2.7	-0.2	3.5	.	.	.	-2.8	0.688	1.3
CCOc1ccc(-n2cnc3scc(-c4ccc(OC)c(OC)c4)c3c2=O)cc1	i	-9.0	-0.4	-0.2	17.5	10.5	1.8	1.5	.	.
O=C(Nc1cc(S(=O)(=O)N2CCOCC2)ccc1N1CCOCC1)c1cn2ccccc2n1	i	.	0.2	5.0	-11.2	-3.7	-1.0	5.3	0.683	6.5
COC(=O)c1ccc(N2CCN(C(C)=O)CC2)c(NC(=O)COc2ccccc2C)c1	i	3.3	0.2	30.7	-17.8	-9.8	2.3	1.1	0.698	4.8
COc1ccc(NC(=O)c2ccccc2Oc2ccccc2)cc1	i	4.4	0.3	8.0	-14.0	-12.3	-3.1	5.7	0.677	1.0
O=C(Nc1ccc(CN2CCCCC2)cc1)c1ccc2c(c1)OCO2	.	-6.1	-0.2	10.5	.	.	.	.	0.686	7.8

Source: PubChem
